Assay outcomes: PubChem BioAssay, Southern Research Institute
Mtb H37Rv: Mycobacterium tuberculosis H37Rv growth inhibition, putative kinase inhibitor library, confirmatory dose response (AID 2842) | M. tuberculosis H37Rv growth inhibition; higher % means a stronger effect; some inactives read as strong as hits | 24,000 tested, 5.2% active | inhibition, % at 10 µg/mL, or IC90 in µg/mL where a hit was titrated;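 active means confirmed in a dose series; about a fifth of its hits are not listed in these tables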;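 further: bacteria incubated one week before Alamar blue readout; 0% = bacteria only wells and 100% = bacteria with high antibiotic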
Active calls of the source: *. These rows are one share of the data (hit frequency here may not be typical).

SMILES	Mtb H37Rv
COc1cc(C(=O)Nc2nnc(C3=COCCO3)o2)cc(OC)c1OC	79%
Nn1c(SCC(=O)Nc2ccc(C(F)(F)F)cc2)nncc1=O	-16%
COc1cc(Cl)c(C)cc1Nc1nnc(C)c(=O)[nH]1	15%
COc1cc(C(=O)Nc2nc(-c3ccc4c(c3)CCCC4)cs2)cc(OC)c1OC	-9%
O=C(CSc1nnc(NC(=O)Cc2ccccc2)s1)Nc1ccccc1	-11%
CC(=O)Cc1nsc(NC(=O)c2ccc(COc3ccccc3)o2)n1	-16%
Cc1[nH]nc2c1C(CCc1ccccc1)C(C#N)=C(N)O2 (stereo not drawn)	4%
Cn1c(=O)c2c(SCc3cccnc3)nc(-c3ccco3)nc2n(C)c1=O	-11%
O=C(CSc1n[nH]c(=O)[nH]c1=O)N/N=C/C=C\c1ccccc1	0%
Cc1ccc(-c2csc(NC(=O)c3ccc(S(=O)(=O)N4CCc5ccccc54)cc3)n2)o1	14%
CC1CN(c2ncnc(N)c2[N+](=O)[O-])CC(C)O1 (stereo not drawn)	-3%
O=C(CSc1nc2ccsc2c(=O)n1Cc1ccccc1Cl)Nc1nccs1	-8%
N#C/C(=N\Nc1cc(C(F)(F)F)ccc1Cl)c1nc(-c2cccc(Br)c2)cs1	-7%
O=C(CSc1ccc2nnc(-c3ccc(Cl)cc3)n2n1)N1CCOCC1	-8%
O=C(Nc1nc2c(cc3c4c(cccc42)CC3)s1)c1ccccc1F	8%
CC(=O)N1CCN(S(=O)(=O)c2cc3c4c(c2)CCN4C(=O)CC3)CC1	-1%
COc1ccc(-c2nnc(NC(=O)c3cccc(F)c3)o2)cc1	76%
Cc1ccc2cc(CCNC(=O)CC3CCCCC3)c(=O)[nH]c2c1C	-11%
O=C(COc1ccc(Cl)cc1)NCc1nnc(SCC(=O)Nc2nc3ccccc3s2)o1	-7%
CCOC(=O)c1nn(-c2ccc(C(F)(F)F)cc2)c(=O)c2c(NC(C)=O)scc12	12%
CCc1ccc(C2NC(=O)NC3=C2C(=O)CCC3)cc1 (stereo not drawn)	7%
COc1cccc2sc(N(CCCn3ccnc3)C(=O)c3cccs3)nc12	5.7µg/mL*
COCCn1c(SCC(=O)NCCc2ccc(OC)c(OC)c2)nc2c([nH]c3ccccc32)c1=O	-4%
COc1ccc(C(=O)NCc2nnc(SCC(=O)Nc3nnc(C)s3)n2-c2ccccc2Cl)cc1	-11%
N#C/C(=N\Nc1ccc2c(c1)OCCO2)c1nc2ccccc2[nH]1	2%
COc1cc(/C=N/Nc2nnc(-c3ccccc3)c(=O)[nH]2)ccc1O	-3%
CCOC(=O)c1nn(-c2ccc(F)cc2)c(=O)c2c(NC(=O)Cc3ccc([N+](=O)[O-])cc3)scc12	-10%
Nn1c(SCC(=O)Nc2cccc(F)c2)nncc1=O	14%
O=C(CSc1ccc2nnc(-c3ccncc3)n2n1)NCc1ccccc1Cl	-5%
Cc1cc(C)nc(SCc2cc(=O)c(OC(=O)c3cc(Cl)ccc3Cl)co2)n1	-7%
COc1ccc(-n2nc3c(c2NC(=O)c2ccc(F)cc2)CS(=O)C3)cc1 (stereo not drawn)	-8%
COc1cccc(OCC(=O)Nc2ccc3c(c2)CC(=O)N3)c1	4%
Cc1cc(C)cc(-n2nnc3c(=O)n(Cc4ccc(Cl)c(Cl)c4)cnc32)c1	4%
COc1ccc(OC)c2[nH]c(=O)c(CCNC(=O)C3(c4ccc(Cl)cc4)CCCC3)cc12	-1%
N#Cc1c(-c2ccc3c(c2)OCO3)nc(N2CCCCC2)[nH]c1=O	-7%
COc1ccc(-n2c(=O)[nH]c3c(C(N)=O)nc(-c4ccc(C(F)(F)F)cc4)nc32)cc1OC	-6%
O=C(CN1C(=O)/C(=C\c2cccs2)SC1=S)Nc1ccc([N+](=O)[O-])cc1	-3%
COc1ccc2cc(C(N)=O)/c(=N/NC(=O)c3ccco3)oc2c1	14%
NC(=O)c1oc2ccccc2c1NC(=O)c1ccc(-c2ccccc2)cc1	-3%
CCC(=O)Nc1nnc(-c2ccccc2OC)o1	16%
CN(Cc1ccccc1)S(=O)(=O)c1ccc(C(=O)Nc2nc3c(cc4c5c(cccc53)CC4)s2)cc1	-5%
O=C(Nc1nc2ccc([N+](=O)[O-])cc2s1)c1cccc(NS(=O)(=O)c2ccc(Cl)cc2)c1	-10%
COc1ccc2sc(Nc3nc(-c4ccccn4)cs3)nc2c1	1.6µg/mL*
O=C(NNc1ncnc2c1cnn2-c1cccc(Cl)c1)c1ccc(Cl)cc1Cl	81%
Cc1n[nH]c(=O)nc1NCc1cccnc1	6%
COc1cccc(C(=O)Nc2sc3c(c2C(N)=O)CCCC3)c1	12%
O=C(O)CCC(CNS(=O)(=O)c1ccccc1[N+](=O)[O-])C(F)(F)F (stereo not drawn)	6%
Cc1ccc(C)c2c1sc(=NC(=O)c1cc3ccccc3oc1=O)n2C	79%
COc1ccc(/C=C2/SC(N3CCN(C(C)=O)CC3)=NC2=O)cc1OC	-4%
Nc1nc(SCC(=O)Nc2cccc(Cl)c2)[nH]c(=O)c1NC(=O)c1ccc(F)cc1	-2%

The listing continues.
SMILES	Mtb H37Rv
O=C(O)c1cccc(NC(=O)c2cc3ccccc3oc2=O)c1	-5%
O=C1CC(NS(=O)(=O)c2ccccc2)CN1c1ccc2c(c1)OCCO2 (stereo not drawn)	1%
O=C(N/N=C/c1cc(=O)[nH]c(=O)[nH]1)c1cccnc1	-22%
O=C(Nc1nc(-c2cc3ccccc3oc2=O)cs1)c1cc(-c2cccs2)nc2ccccc12	-8%
Cc1nc2ncccn2c1-c1csc(Nc2ccc(O)cc2)n1	8%
O=C(Nc1nc2c(s1)CCc1ccccc1-2)c1cccc(Br)c1	17µg/mL*
CC(=O)NC(=O)c1cc2ccccc2oc1=Nc1ccc(C#N)cc1	8%
O=S(=O)(Nc1cccc(-c2ccc(N3CCCCC3)nn2)c1)c1ccc2ccccc2c1	-13%
O=C(CSc1nnc2ccc(-c3ccccc3)nn12)NCc1ccccc1	-14%
Cn1c(=O)[nH]c(=O)c2c1nc(N(CCO)Cc1ccccc1)n2Cc1ccccc1Cl	7%
COc1ccc(Cl)cc1-n1c(-c2ccccc2)cn2c3c(=O)n(CC(C)=O)c(=O)n(C)c3nc12	4%
CC(C)C(=O)Nc1nnc(-c2cc(Cl)ccc2Cl)o1	27µg/mL*
Cc1csc2ncc(C(=O)Nc3ccc(C(F)(F)F)cc3)c(=O)n12	-6%
O=C(CSc1nnc2sc3ccccc3n12)NCc1ccco1	10%
CCSc1nnc(NC(=O)CSc2nncn2C)s1	-12%
O=C(Nc1ccc(F)cc1)c1cnc2sccn2c1=O	3%
COc1ccccc1NC(=O)c1oc2ccccc2c1NC(=O)Cc1ccc(F)cc1	1%
COC(=O)c1c(NC(=O)c2ccc(C(C)(C)C)cc2)sc2c1CC(C)(C)NC2(C)C	-3%
Cc1ccc2cc(CCNC(=O)Cc3cccc4ccccc34)c(=O)[nH]c2c1	-3%
COc1ccc(OC)c2[nH]c(=O)c(CCNC(=S)NCCn3ccc4ccccc43)cc12	53%
Cc1nnc(Sc2nc3c(c(=O)[nH]c(=O)n3C)n2CCCc2ccccc2)s1	-3%
COc1ccc(-c2cc3ccccc3n2CC(O)CNCCc2ccccc2)cc1 (stereo not drawn)	4.1µg/mL*
Cc1nc2ccc3nc(Nc4nc5ccc(F)cc5s4)sc3c2s1	98%
CCc1ccc(C(=O)c2cn(Cc3ccc(F)cc3)c3cc(OC)c(OC)cc3c2=O)cc1	9%
Cc1ccc2nc(NNC(=O)c3ccc(S(=O)(=O)N4CCC(C)CC4)cc3)sc2c1	70%
COC(=O)c1ccc(CSc2nc3c([nH]c4ccccc43)c(=O)n2-c2ccccc2F)o1	3%
O=C(CCc1ccccc1)Nc1nnc(-c2ccccc2Cl)s1	16%
CCc1nnc(NC(=O)CSc2ccc(-c3ccc(OC)c(OC)c3)nn2)s1	-7%
O=C(CSc1nc2c(c(=O)n1-c1ccccc1)SCC2)NCc1ccco1	1%
COc1cccc(N2CC(NC(=O)Nc3ccccn3)CC2=O)c1 (stereo not drawn)	13%
CCOC(=O)c1nn(-c2ccc(OC)cc2)c(=O)c2c(NC(=O)Cc3ccc(OCC)cc3)scc12	8%
COC(=O)c1ccc(Oc2cn[nH]c2-c2ccc(OC)cc2O)cc1	-6%
Cc1ccc(-n2c(=O)[nH]c3c(C(N)=O)nc(-c4ccccc4C)nc32)cc1C	4%
COc1ccc(CC(=O)NCCc2cc3c(C)ccc(C)c3[nH]c2=O)cc1OC	-2%
Cc1cc2cc(CCNC(=O)CCC3CCCCC3)c(=O)[nH]c2cc1C	2%
O=C(O)CCn1c(=O)[nH]c2ccccc2c1=O	-7%
O=C(NC(=S)Nc1ccc(N2CCOCC2)cc1)c1ccc([N+](=O)[O-])cc1	8%
CCN(CC)S(=O)(=O)c1ccc(C(=O)Nc2nc(-c3ccc(F)cc3)cs2)cc1	7%
COc1cccc(NC(=O)CSc2ccnc3c2c(=O)n(C)c(=O)n3C)c1	-6%
CCOC(=O)c1nn(-c2ccc(Cl)cc2)c(=O)c2c(NC(=O)C(C)(C)C)scc12	15%
O=C(Nc1nc2c(ccc3ccccc32)s1)c1ccc([N+](=O)[O-])cc1	13%
CCCn1c(=S)[nH]c2c1c(=O)[nH]c(=O)n2C	10%
Cc1c(C(=O)O)sc2nc(SCC(=O)Nc3ccccc3C(F)(F)F)[nH]c(=O)c12	-27%
O=C(NCCc1ccccc1)C(=O)Nc1cccc(N2CCCC2=O)c1	1%
CC1C(C#N)=C(N)Oc2c1c(=O)oc1ccccc21 (stereo not drawn)	-4%
Cc1cc(C)cc(NS(=O)(=O)c2ccc3[nH]c(=O)[nH]c3c2)c1	-21%
Cc1ccc2nc(N(CCN3CCOCC3)C(=O)c3ccc(C#N)cc3)sc2c1	9%
Cc1cccc(NC(=O)CN2N=NC3C(=O)N(c4ccc(C(C)C)cc4)C(=O)C32)c1C (stereo not drawn)	-12%
CCOC(=O)c1nn(-c2ccccc2)c(=O)c2c(NC(=O)COc3ccc(Cl)cc3Cl)scc12	-13%
O=C1Cc2cc(NS(=O)(=O)c3ccc(F)cc3F)ccc2N1	3%

Compounds listed so far with two or more sulfur atoms (20):
SMILES	Mtb H37Rv
O=C(CSc1nnc(NC(=O)Cc2ccccc2)s1)Nc1ccccc1	-11%
Cc1ccc(-c2csc(NC(=O)c3ccc(S(=O)(=O)N4CCc5ccccc54)cc3)n2)o1	14%
O=C(CSc1nc2ccsc2c(=O)n1Cc1ccccc1Cl)Nc1nccs1	-8%
O=C(COc1ccc(Cl)cc1)NCc1nnc(SCC(=O)Nc2nc3ccccc3s2)o1	-7%
COc1cccc2sc(N(CCCn3ccnc3)C(=O)c3cccs3)nc12	5.7µg/mL*
COc1ccc(C(=O)NCc2nnc(SCC(=O)Nc3nnc(C)s3)n2-c2ccccc2Cl)cc1	-11%
O=C(CN1C(=O)/C(=C\c2cccs2)SC1=S)Nc1ccc([N+](=O)[O-])cc1	-3%
CN(Cc1ccccc1)S(=O)(=O)c1ccc(C(=O)Nc2nc3c(cc4c5c(cccc53)CC4)s2)cc1	-5%
O=C(Nc1nc2ccc([N+](=O)[O-])cc2s1)c1cccc(NS(=O)(=O)c2ccc(Cl)cc2)c1	-10%
COc1ccc2sc(Nc3nc(-c4ccccn4)cs3)nc2c1	1.6µg/mL*
O=C(Nc1nc(-c2cc3ccccc3oc2=O)cs1)c1cc(-c2cccs2)nc2ccccc12	-8%
O=C(CSc1nnc2sc3ccccc3n12)NCc1ccco1	10%
CCSc1nnc(NC(=O)CSc2nncn2C)s1	-12%
Cc1nnc(Sc2nc3c(c(=O)[nH]c(=O)n3C)n2CCCc2ccccc2)s1	-3%
Cc1nc2ccc3nc(Nc4nc5ccc(F)cc5s4)sc3c2s1	98%
Cc1ccc2nc(NNC(=O)c3ccc(S(=O)(=O)N4CCC(C)CC4)cc3)sc2c1	70%
CCc1nnc(NC(=O)CSc2ccc(-c3ccc(OC)c(OC)c3)nn2)s1	-7%
O=C(CSc1nc2c(c(=O)n1-c1ccccc1)SCC2)NCc1ccco1	1%
CCN(CC)S(=O)(=O)c1ccc(C(=O)Nc2nc(-c3ccc(F)cc3)cs2)cc1	7%
Cc1c(C(=O)O)sc2nc(SCC(=O)Nc3ccccc3C(F)(F)F)[nH]c(=O)c12	-27%
